SARS PLpro yeast – inhibitors of SARS-CoV papain-like protease in yeast; S. cerevisiae expressing SARS-CoV PLpro, growth rescue; control for the full effect not named in the record; Potency, µM (doses to about 32.9 µM), inactives show top-dose activity, positive = growth rescue; hit rate 0.19% among 330,000; active means well fitted rising curve with a large enough effect; inconclusive means small, poorly fitted or top-dose-only effect; inactive means no such curve, though single readings can be large or run the other way; note: 0% is about no effect; nearly all actives have a fitted effect of over 55% in size; growth read by luminescence after 48 h
LASV entry inh – inhibitors of Lassa virus binding or cell entry; Lassa virus pseudotype entry inhibition, cell reporter; control for the full effect not named in the record; Potency, µM (doses to about 37.9 µM), inactives show at the top dose activity change, negative = inhibition, most hits filed as inhibitors; hit rate 1.2% among 300,000; AID 540256; active means well fitted inhibition curve with a large enough effect; inconclusive means small, poorly fitted or top-dose-only effect, or effect the other way; inactive means flat fitted curve, though single readings scatter; tested in HEK293 cells; note: % is set by controls: 0 for no effect and ±100 for the full control effect; nearly all actives have a fitted effect of over 50% in size; luciferase read-out
Cruzain inh Det – blocks cruzain activity in presence of Triton detergent | AID 1478 | P25779 | Potency, µM, for inactives: max response, negative = inhibition, most hits filed as inhibitors | hit rate 0.43% among 200,000 | purified cruzain, Z-FR-AMC fluorescence, 0.01% Triton;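 note: plate controls were neutral wells for no effect and buffer without enzyme for full effect; nearly all actives have a fitted effect of over 40% in size; top concentration of the series not given in the record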
Target sequence (P25779 123-467 limits assumed): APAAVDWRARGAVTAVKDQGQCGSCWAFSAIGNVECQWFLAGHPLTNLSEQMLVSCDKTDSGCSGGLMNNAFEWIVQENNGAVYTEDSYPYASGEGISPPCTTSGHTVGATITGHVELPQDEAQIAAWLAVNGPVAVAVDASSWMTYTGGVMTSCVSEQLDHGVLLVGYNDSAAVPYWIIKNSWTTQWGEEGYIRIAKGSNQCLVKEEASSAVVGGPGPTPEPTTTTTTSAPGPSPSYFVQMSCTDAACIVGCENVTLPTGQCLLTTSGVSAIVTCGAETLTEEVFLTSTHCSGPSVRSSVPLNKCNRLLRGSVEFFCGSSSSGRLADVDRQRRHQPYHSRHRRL
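Enzyme 1.5 nM, Z-FR-AMC 2 uM, NaOAc 100 mM pH 5.5, DTT 5 mM, Triton X-100 0.01%; 15 min RT compound preincubation; kinetic ex360/em450, 60 s delta.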
2A StopGo – FMDV 2A StopGo reporter, luciferase signal. hit rate 1.2% among 410,000. Potency, µM (top dose mostly 57.9 µM), for the others: top-dose signal change, negative = less light. human cells with a luciferase reporter of 2A StopGo recoding; control for the full effect not named in the record. AID 1159524; active = well fitted falling curve with a large enough effect; inconclusive = small, poorly fitted or top-dose-only effect; inactive = no such curve, though single readings can be large or run the other way; tested in HEK293T cells; note: % is set by controls: 0 for no effect and ±100 for the full control effect; nearly all actives have a fitted effect of over 45% in size; luciferase light after 4 h
MARV entry inh – blocks Marburg virus binding to or entry into cells; Potency, µM (top dose mostly 37.8 µM), for the others: top-dose activity change, negative = inhibition, usual class: inhibitors; hit rate 1.8% among 300,000; AID 540276; Marburg virus pseudotyped entry inhibition, cell reporter; control for the full effect not named in the record; about a third of the inactives were read at about 46 µM; active = well fitted inhibition curve with a large enough effect; inconclusive = small, poorly fitted or top-dose-only effect, or effect the other way; inactive = flat fitted curve, though single readings scatter; tested in HEK293 cells; about a fifth of its hits are not listed in these tables; note: % is set by controls: 0 for no effect and ±100 for the full control effect; luciferase read-out
Cruzain noTriton – inhibitors of Trypanosoma cruzi cruzain without detergent; purified cruzain, Z-FR-AMC fluorescence, no detergent; Potency, µM, for inactives: max response, negative = inhibition, usual class: inhibitors; hit rate 2.3% among 200,000; AID 1476;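 note: plate controls were enzyme without inhibitor for no effect and buffer without enzyme for full effect; nearly all actives have a fitted effect of over 40% in size; top concentration of the series not given in the record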
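Purified cruzain at 1.5 nM, pre-incubated 15 min with compound at room temperature in 100 mM sodium acetate pH 5.5, 5 mM DTT, 0.00005% Triton X-100. Reaction started with 2 uM Z-FR-AMC; AMC fluorescence increase over 60 s gives rate.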
RE007 growth inh – less growth of the S. pombe RE007 Vpr strain; S. pombe RE007 Vpr strain, BacTiter-Glo ATP luminescence, 24 h; control for the full effect not named in the record; Potency, µM (top dose mostly 92.2 µM), for inactives: at the top dose activity change, negative = less growth; hit rate 0.21% among 360,000; AID 651644; active = well fitted falling curve with a large enough effect; inconclusive = small, poorly fitted or top-dose-only effect; inactive = no such curve, though single readings can be large or run the other way;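 note: % is set by controls: 0 for no effect and ±100 for the full control effect; nearly all actives have a fitted effect of over 50% in size; the assay follows cell death caused by Vpr and the record does not say whether a fall means rescue or toxicity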
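Fission yeast RE007 carrying one integrated HIV-1 vpr copy, seeded at OD 0.01 in PMG+AL medium with 23 nL pinned compound. Grown 24 h at 30 degrees; viability read by BacTiter-Glo luminescence after 5 min.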
NS1 function inh – influenza NS1 inhibition; S. cerevisiae slowed by influenza A NS1, growth recovery by OD600; Potency, µM (doses to about 46.1 µM), inactives show at the top dose activity, positive = more growth; hit rate 0.4% among 270,000; AID 2326; active means well fitted rising curve with a large enough effect; inconclusive means small, poorly fitted or top-dose-only effect; inactive means no such curve, though single readings can be large or run the other way; note: nearly all actives have a fitted effect of over 50% in size
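Compounds were scored for reversing the slow growth caused by influenza A NS1 in S. cerevisiae, measured by optical density at 600 nm. Assay medium contained 2% galactose at pH 6.0; NS1-free yeast of the same strain were the positive control.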
An asterisk follows results filed as active; ? = inconclusive; · = not tested or not shown; & = joins results of further samples; [ ] = dose if it differs, or a comment. Unless noted, calls come from the whole dose curve; as a rule, active = well fitted curve in the direction sought with a large enough effect; inconclusive = small, poorly fitted or top-dose-only effect, or another doubt; inactive = no such curve, though single readings can be large; an effect the other way counts as inactive or inconclusive. Potency is the fitted concentration of half-maximal effect.

The line under a structure holds: SARS PLpro yeast, LASV entry inh, Cruzain inh Det, 2A StopGo, MARV entry inh, Cruzain noTriton, RE007 growth inh, NS1 function inh
CCOc1ccc(CCNC(=O)CS(=O)(=O)Cc2nc(-c3cccc(Cl)c3)oc2C)cc1
  ·, -3%[46.1 µM], -3.4%, -8%, -12%[46.1 µM], 3%, ·, ·
Cc1cccc(OCCNC(=O)c2cc(-n3cnnc3)ccc2Cl)c1
  1%, 19%, 0.1%, -24%, 4%, -7%, -1%, -1%
CCOC(=O)C1CCCN(C(=O)CSc2nc(C)cc(C)n2)C1 (stereo not given)
  4%, -24%, ·, -4%, 7%[46.1 µM], ·, -17%, 17%
COc1cc(OC)c(OC)cc1CNCCc1ccc2c(c1)OCO2
  3%, ·, ·, 0%, ·, ·, -19%, -3%
O=C(NC12CC3CC(CC(C3)C1)C2)N1CCCC(CO)C1 (stereo not given)
  4%, 13%, 0.7%, -8%, ?, -3%, 26%, 0%
COc1ccc(C2C=C(c3ccc(Br)cc3)Nc3nc(NS(C)(=O)=O)nn32)cc1 (stereo not given)
  5%, ·, -0.7%, ·, ·, ?, ·, 28%
O=C(Nc1ccc(Nc2ccccc2)cc1)c1ccc(Cl)c([N+](=O)[O-])c1
  -13%, ·, ·, -20%, ·, ·, -23%, -73%
COc1ccc(N(CC(=O)NCCSCc2ccc(C)cc2)S(=O)(=O)c2ccccc2)cc1
  ?, -30%, ·, ?, ?, ·, 78%, -27%
COc1ccc(Br)cc1CSC(=N)N
  0%, 0%[46.1 µM], ·, -25%, 13µM*, ·, 1%, 2%
CCCCNc1c([N+](=O)[O-])ncn1C
  0%, 1%, ·, -22%, -3%[46.1 µM], ·, 1%, 7%
O=C(O)c1cccc(N/N=C/c2cc(Br)cc(Br)c2O)c1
  -70%, 12%, -16%, 21%, 26%, ?, ?, -43%
CCN(CC(=O)Nc1ccc(NC(C)=O)cc1)C(=O)CCCOc1cccc(C)c1
  -3%, -21%, ·, ?, -29%[46.1 µM], ·, -26%, ·
CCOc1ccccc1CNC(=O)Cc1ccc(NC(=O)N2CCCCc3ccccc32)cc1
  ·, 4.5µM*, -2.2%, -17%, ·, 3%, ·, ·
CC(C)CCC(C(=O)NC(C)c1ccccc1)C(=O)NC(C)c1ccccc1 (stereo not given)
  1%, 9%[46.1 µM], ·, -9%, -9%[46.1 µM], ·, 18%, 7%
CS(=O)(=O)N1CCN(C(=O)c2ccc(F)cc2)CC1
  3%, -12%, 2.1%, -18%, 14%, -8%, -20%, 4%
CSc1nc2sc3c(c2c(=O)[nH]1)CCC3
  1%, -3%, 0.3%, -6%, 4%, -22%, 1%, 0%
CCCCc1cc(=O)oc2cc(C)cc(OC(C)C(=O)NCc3cccnc3)c12 (stereo not given)
  6%, -21%[46.1 µM], ·, -8%, -17%[46.1 µM], ·, -5%, 4%
O=[N+]([O-])c1ccc(Cl)c(S(=O)(=O)Nc2ccc(S(=O)(=O)N3CCOCC3)cc2)c1
  -1%, 3%, ·, 50%[activator], 2%[46.1 µM], ·, -10%, 7%
N#Cc1c(-c2ccco2)cc(-c2cccnc2)nc1N
  -11%, -14%, -24%, -20%, ?, -11%, 34%, ?
C/C(=N\Nc1nc(N2CCOCC2)nc(N2CCOCC2)n1)c1ccc([N+](=O)[O-])cc1
  -5%, 17%, ·, -3%, 0%[46.1 µM], ·, 0%, ·
COc1ccccc1/C=C/C(=O)Nc1cccnc1
  -3%, ?, ·, 54%[activator], -3%, ·, 5%, -28%
CCN1CCN(CCCNC(=O)c2cc3c(=O)n(C)c4ccccc4c3s2)CC1
  ·, 20%[46.1 µM], -8.2%, -12%, ?, -2%, ·, ·
COC(=O)c1ccccc1-n1c(CCC(=O)O)ccc1-c1ccc(F)cc1
  0%, ·, ·, -5%, ·, ·, -6%, -5%
Fc1ccc(OCCOCCN2CCNCC2)cc1
  -1%, 3%, ·, -3%, 0%, ·, 6%, -1%
CN(C)/C=N/c1ncnc2c1cnn2-c1ccc(C(F)(F)F)cn1
  -5%, 9%, 0.1%, 19%, ?, -10%, -29%, 7%
CC(C)CCn1c(SCC(=O)N2CC(=O)Nc3ccccc32)nc2scc(-c3cccs3)c2c1=O
  9%, 24%, -3.4%, -13%, -17%, 13µM*, 4%, 21%
COc1cccc(C(=O)N2c3ccccc3Sc3ccccc32)c1
  -17%, ?, -2.3%, ?, ?, 6%, -5%, -15%
COc1ccccc1N1CCN(C(=O)c2cc3c(=O)n(C)c4ccccc4c3n2C)CC1
  -5%, ·, -8.8%, -27%, ·, ?, -7%, -36%
Cc1onc(-c2ccc(Cl)cc2Cl)c1-c1csc(N/N=C/c2ccccc2)n1
  0%, ?, ·, -28%, ?, ·, -4%, -4%
CC(C)(C)NC(=O)Nc1ccc2nccnc2c1
  -10%, 0%, -5.9%, 0%, -5%, 2%, 0%, 8%
CCCCCCCCCCCCCCCC[n+]1ccc(/C=N/O)cc1
  -58%, 6.5µM*, -16%, ?, 4.5µM*, -2%, ?, -1%
Nc1nnc(SCCN2C(=O)c3ccccc3S2(=O)=O)s1
  8%, -4%, 4.5%, -12%, ?, -2%, -10%, 2%
CC(C)[C@H](NC(=O)c1ccccc1)C(=O)NCCc1ccccc1
  1%, 3%, ·, -4%, 17%, ·, -8%, -1%
CCc1ccccc1NC(=O)Cn1c(=O)n(CC2CCC(C(=O)NCCc3ccccc3)CC2)c(=O)c2ccccc21 (stereo not given)
  ·, 22%[46.1 µM], -0.7%, 1%, 3%[46.1 µM], -4%, ·, ·
CCc1ccc(NC(=O)c2ccc(F)c(S(=O)(=O)NCc3ccc(Cl)c(Cl)c3)c2)cc1
  ·, ?, 0.6%, -28%, ·, -29%, ·, ·
COc1ccc(C2=NO[C@@H]3C(=O)N(c4ccc(C)cc4C)C(=O)[C@H]23)cc1OC
  -13%, 6%, -8.9%, -4%, 3%, 14%, ?, -106%
O=C(NNc1nc2cc3c(cc2s1)OCO3)c1ccccc1
  -12%, ?, -3.7%, 41%[activator], 24%, -5%, 5%, 28%
O=C(O)CC(c1ccc(Cl)cc1)N1C(=O)CCC1=O (stereo not given)
  1%, 0%, 1.3%, -9%, -2%, -2%, -5%, -2%
Cc1nn2c(=O)cc(CSc3nc4ccccc4[nH]3)nc2s1
  4%, ·, -0.1%, -31%, ·, -5%, -3%, ?
COc1ccc(/C=N/NC(=O)C[n+]2ccccc2)c(OC)c1
  -1%, ·, ·, -6%, ·, ·, 13%, -10%
c1ccc(-c2ccc(CN3C[C@@H]4C(c5ccccc5)C5(c6ccccc6)CC4(C5)[C@H]3c3ccccc3)cc2)cc1 (stereo not given in full)
  0%, ·, 4.1%, 1%, ·, 1%, -8%, 8%
COc1cccc(Nc2nc(C)cc(C)c2C#N)c1
  -6%, -11%, -1.5%, -14%, -7%[46.1 µM], -9%, -13%, 6%
COc1ccc(S(=O)(=O)N(Cc2cc3ccc(OC)cc3[nH]c2=O)CC2COCCO2)cc1 (stereo not given)
  4%, -16%, 178%[activator], 13%, 4%&4%, ?, -2%, -6%
CCOC(=O)N1CCN(c2cc(=O)n(-c3cccc(C)c3)c(=O)[nH]2)CC1
  7%, 12%[46.1 µM], ·, -9%, 9%[46.1 µM], ·, 30%, ·
O=c1[nH]nnc2cc(Cl)ccc12
  ·, 1%, ·, -11%, -5%, ·, 5%, ·
Cc1ccc(C(=O)c2c(NC(=O)c3ccncc3)sc3c2CCCC3)cc1
  -8%, -32%, -4.9%, -8%, ?, 13%, -12%, 2%
CC1NC(=S)N(Cc2ccccc2)C1=O (stereo not given)
  1%, 6%, ·, -14%, 23%, ·, -2%, 13%
Cc1ccc2nc(SCC(=O)NCc3ccco3)c(C)cc2c1
  14%, 29%[46.1 µM], ·, -14%, ?, ·, 5%, -7%
COc1cc(/C=N\NC(=O)c2cccc(Cl)c2)ccc1Oc1ccc([N+](=O)[O-])cn1
  -1%, -28%, ·, -18%, ?, ·, 5%, 2%
CCOC(=O)c1ccc(NC(=O)C2CCCN(S(=O)(=O)c3cnc[nH]3)C2)cc1 (stereo not given)
  -4%, ·, 1.0%, -6%, ·, 13%, -1%, 13%
CCN(CC)S(=O)(=O)c1ccc(Oc2ccc(S(=O)(=O)N(CC)CC)cc2)cc1
  -3%, 15µM*, -2.6%, ?, ?, 9%, 11%, -7%
O=C(c1sccc1-c1ccccc1)N1CCN(S(=O)(=O)c2ccccc2)CC1
  3%, ?, ·, -11%, -23%, ·, -5%, 4%
O=C(COc1ccccc1)NNC1=NS(=O)(=O)c2ccccc21
  3%, -10%, ·, 39%[activator], 3%[46.1 µM], ·, -11%, ·

Full records from above. Screens in order: SARS PLpro yeast, LASV entry inh, Cruzain inh Det, 2A StopGo, MARV entry inh, Cruzain noTriton, RE007 growth inh, NS1 function inh
O=C(O)CC(c1ccc(Cl)cc1)N1C(=O)CCC1=O (stereo not given) as listed: 1%, 0%, 1.3%, -9%, -2%, -2%, -5%, -2%
CC(C)[C@H](NC(=O)c1ccccc1)C(=O)NCCc1ccccc1 as listed: 1%, 3%, ·, -4%, 17%, ·, -8%, -1%

Fetched by compound from the list above, 4 records:
The line under a structure holds: SARS PLpro yeast, LASV entry inh, Cruzain inh Det, 2A StopGo, MARV entry inh, Cruzain noTriton, RE007 growth inh, NS1 function inh
Cc1nn2c(=O)cc(CSc3nc4ccccc4[nH]3)nc2s1
  4%, ·, -0.1%, -31%, ·, -5%, -3%, ?
O=C(COc1ccccc1)NNC1=NS(=O)(=O)c2ccccc21
  3%, -10%, ·, 39%[activator], 3%[46.1 µM], ·, -11%, ·
CCc1ccc(NC(=O)c2ccc(F)c(S(=O)(=O)NCc3ccc(Cl)c(Cl)c3)c2)cc1
  ·, ?, 0.6%, -28%, ·, -29%, ·, ·
O=c1[nH]nnc2cc(Cl)ccc12
  ·, 1%, ·, -11%, -5%, ·, 5%, ·

Screening data from PubChem.
